Assay outcomes from PubChem.
AmpC nodet inh: blocks E. coli AmpC beta-lactamase in absence of detergent; AID 585; Potency, µM (series often up to 28.7 µM), for the others: top-dose activity change, negative = inhibition; 71,000 compounds, 1.8% hits; AmpC nitrocefin hydrolysis, absorbance 480 nm, no detergent; potencies from a single point are estimates; P00811; active = falling curve, for most hits resting on a single point; inconclusive = weak or doubtful change; inactive = flat or rising curve; note: % of control where 0% means no effect; about half of the hits show no inhibition at the top dose; a quarter of the inactives give rising signals
Target sequence (P00811 whole entry, looked up): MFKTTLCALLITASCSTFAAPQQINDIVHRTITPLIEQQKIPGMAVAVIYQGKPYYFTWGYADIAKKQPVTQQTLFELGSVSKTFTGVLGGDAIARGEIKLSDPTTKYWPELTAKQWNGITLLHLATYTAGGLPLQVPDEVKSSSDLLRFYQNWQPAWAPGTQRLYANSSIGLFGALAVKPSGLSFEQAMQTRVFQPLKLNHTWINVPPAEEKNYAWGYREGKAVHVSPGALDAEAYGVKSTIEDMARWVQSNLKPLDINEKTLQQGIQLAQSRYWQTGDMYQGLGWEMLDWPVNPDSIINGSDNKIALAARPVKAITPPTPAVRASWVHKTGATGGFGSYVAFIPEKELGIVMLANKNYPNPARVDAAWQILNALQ
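AmpC, 20 mM phosphate pH 7.0; 15 min cpd preinc, RT; start with nitrocefin (800 uM stock); A480 kinetic read, 20 s intervals, 4 min. No-enzyme wells = negative control.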
Starred values were filed as active, the others as inactive; ? = inconclusive; & = joins results of further samples; [ ] = remark or other dose. Potency is the fitted concentration of half-maximal effect. Some of the compounds tested, so the mix of outcomes need not match the whole.

SMILES	AmpC nodet inh
O=C(NCc1ccco1)c1cccn2c(=O)c3cc(Br)ccc3nc12	98%
COC(=O)c1ccc(OCC(O)CN(CC(C)C)CC(C)C)cc1 (stereo unspecified)	6%
O=C(NCCc1ccc(S(=O)(=O)N2CCCC2)cc1)c1cccs1	-4%
CCn1nnc(NC(=O)c2cccnc2)n1	0%
CCCCC(c1nnnn1C1CCCC1)N1CCN(C2CCCC2)CC1 (stereo unspecified)	3%
O=C(CSc1ncn(-c2ccccc2)n1)Nc1ccc2c(c1)OCCO2	-7%
CCN(CC)CCN(CC)Cc1ccccc1Br	4%
C=CCNC(=O)CCCCC(=O)NCC=C	-7%
CCOc1ccc(Nc2oc(Cc3ccccc3)nc2C#N)cc1	6%
CC1=C(C(=O)N2CCOCC2)C(c2cccs2)NC(=O)N1 (stereo unspecified)	0%
Cc1ccccc1NC(=O)c1ccc(NC(=O)c2ccco2)cc1	-3%
O=C(NCc1cccs1)C1CCCN(S(=O)(=O)c2ccc(Br)s2)C1 (stereo unspecified)	-6%
N#Cc1cccc(NC(=O)N2CC3(CCN(C(=O)c4ccco4)CC3)C2)c1	20%
CCC(C)(C)n1nnnc1CN(Cc1cc2cc(OC)ccc2[nH]c1=O)C1CCCC1	38%
N#C[C@@H](Cc1ccc(O)c(O)c1)C(=O)N1CCc2ccccc21	-16%
CCOc1ccc2[nH]c(=O)c(CN(CCO)C(=O)c3ccccc3F)cc2c1	84%
CNC(=O)NC(=O)CSc1nc2cc(C(=O)OC)ccc2c(=O)n1-c1ccccc1	13%
NCCCCCCCCCCN	5%
O=C(O)CCC(=O)Nc1ccc(S(=O)(=O)N2CCCC2)cc1	1%
CC1(C)CC(=O)C(C=NCCC2=CCCCC2)=C(O)C1	9%
COC(=O)c1ccc(C(NC(=O)OCc2ccccc2)/C(C)=C/[C@@H](C)C(=O)NCc2nc3ccccc3s2)cc1 (stereo partly specified)	35%
CC(=O)OCC(=O)[C@@]1(O)CC[C@@H]2[C@@H]3CCC4=CC(=O)CC[C@@]4(C)[C@H]3C(=O)C[C@]21C	16%
Cc1c(N=Cc2cc3c(cc2Cl)OCO3)c(=O)n(-c2ccccc2)n1C	-3%
Cc1cc(C)c2c(=O)n(CC(=O)N3CCC(N4CCCCC4)CC3)sc2n1	19%
O=C(CN1CC(c2ccccc2)CC1=O)OCc1ccccc1F (stereo unspecified)	29%

New compounds follow.
SMILES	AmpC nodet inh
O=C1C(=O)c2ccccc2C(O)=C1C1CCC(c2ccc(Cl)cc2)CC1 (stereo unspecified)	-12%[12.8 µM]
COCCNC(=O)COc1cccc(Oc2ccccc2)c1	38%
CC(C)Cc1nc2oc3c(NCC4CCCO4)ncnc3c2c2c1CCC2 (stereo unspecified)	111%
Cc1ccccc1N(C(=O)Cn1nnc2ccccc21)C(C(=O)NCc1ccco1)c1ccncc1 (stereo unspecified)	38%
CC(=O)c1cccc(S(=O)(=O)N(CCCO)Cc2cc3ccc(C)cc3[nH]c2=O)c1	55%
Cc1cc(NC(=O)COC(=O)COc2cccc3c2OC(C)(C)C3)no1	-4%
O=C(O)c1ccccc1SC1CC(=O)N(C2CCCCC2)C1=O (stereo unspecified)	1%
O=C(COC(=O)c1ccc(Br)o1)NCc1ccco1	-17%
O=C(C1CCCN1C(=O)c1cccs1)N1CCN(Cc2ccc3c(c2)OCO3)CC1 (stereo unspecified)	8%
O=C(CN1CC(c2ccccc2)CC1=O)Nc1ccccc1 (stereo unspecified)	23%
O=C(NCC1CCCO1)c1ccccc1-c1nc(-c2ccc(Cl)cc2)no1 (stereo unspecified)	82%
O=C(Cn1nc(Cc2cccnc2)c2ccccc2c1=O)N1CCC2(CC1)OCCO2	-6%
CCOC(=O)C1CCN(C(=O)CC2C(=O)N(Cc3ccccc3)C(C)c3nc4ccccc4n32)CC1 (stereo unspecified)	92%
Oc1ccc(-c2nc(-c3ccc(F)cc3)c(-c3ccncc3)[nH]2)cc1	0%&-11%
O=C(NCc1ccco1)C(c1ccc(F)cc1)N(CC1CCCO1)C(=O)Cn1nnc2ccccc21 (stereo unspecified)	18%
COC(=O)[C@H](CCSC)NC(=O)Nc1ccc(C)c(C)c1	-9%
CC(C)[C@H](NC(=O)[C@@H]1CSCN1C(=O)OC(C)(C)C)C(=O)NCC1CCC(C(=O)O)CC1 (stereo partly specified)	4%
Nc1cc(N)nc(SCCN2CCCCC2)n1	-5%
O=c1c2ccccc2nc(SCc2ccccc2)n1Cc1ccco1	?
CCN(CC)S(=O)(=O)c1ccc(C(=O)NCc2n[nH]c(=S)n2Cc2ccccc2)cc1	23%
CCOC(=O)c1c(N)sc(C(O)(C(F)(F)F)C(F)(F)F)c1-c1ccc(OC)cc1OC	14%
CCN(CC)S(=O)(=O)c1ccc(NC(=O)COC(=O)c2ccc(Br)o2)cc1	-19%
c1ccc(-c2nc3nc4ccccc4nc3n2Cc2ccco2)cc1	44%
CCOc1ccccc1-c1nnc(SCC(=O)NC2CC3CCC2C3)n1CC (stereo unspecified)	36%
Cc1cc2oc(=O)cc(C)c2c(=O)o1	-14%

Further structures follow:
SMILES	AmpC nodet inh
CN(C)CCOc1nc(-c2ccccc2)nc2c1oc1ccccc12	61%
FC(F)C(F)(F)C1=CC(c2cccs2)=NCCN1	-5%
CC(=O)N1CCc2cc(S(=O)(=O)NC(C(=O)NC3CCCc4ccccc43)C(C)C)ccc21 (stereo unspecified)	23%
N[C@@H](Cc1cc(O)c(O)cc1O)C(=O)O	5µM*
O=C1CCC(=O)N1c1ccc(CSc2nc3ccccc3[nH]2)cc1	8%
O=C(CC1CCCCC1)N1CCN(c2ccccn2)CC1	17%
O=C(CSc1ccccn1)N1CCN(c2ccccc2)CC1	8%
O=C(Cn1cnc2ccccc21)OCC(=O)N1CCc2ccccc2C1	13%
CCOC(=O)CSc1nnc(-c2ccccc2NC(=O)c2ccccc2)o1	5%
COc1ccccc1C(=O)NCCC(=O)N1CC(=O)Nc2ccccc21	2%
CC(C)(C)c1ccc(S(=O)(=O)N2CCCC2C(=O)NC2=NCCS2)cc1 (stereo unspecified)	29%
CCCC(=O)CN1C(=O)C2(OCCO2)c2ccccc21	-8%
O=C(Nc1ccc(Br)c2cccnc12)c1ccc(Cn2cc(Cl)cn2)o1	34%
O=C(CSc1nnc(C2CC2)n1Cc1ccccc1)c1cc2ccccc2o1	30%
O=C(COc1c(F)c(F)c(C(F)(F)F)c(F)c1F)Nc1ccc(N2CCOCC2)c(Cl)c1	43%
Cc1cccc(CCN(Cc2cc3cccc(C)c3[nH]c2=O)C(=O)N2CCOCC2)c1	127%
Cn1c(=O)c2c(ncn2CC(N)=O)n(C)c1=O	-10%
CCS(=O)(=O)n1nc(-c2ccccc2)nc1SCc1ccccc1	-1%
CC1(C)Cc2c(sc3nn[nH]c(=O)c23)CO1	-10%
O=C(c1ccco1)N1CCN(c2ncnc3c2[nH]c2ccc(Br)cc23)CC1	26%
COc1ccc(C(CNC(=O)Cn2[nH]c(=O)c3ccccc3c2=O)N2CCCC2)cc1 (stereo unspecified)	-2%
Cn1nnc(NC(=O)c2ccccc2F)n1	-14%
COc1ccc(-c2nc3cnc(OC)nc3n(CCC#N)c2=O)cc1	0%
COc1ccc(-n2nc(C(=O)Nc3ccc4c(c3)OCO4)c3ccccc3c2=O)c(OC)c1	67%
C/C(=N\O)C(=O)C(CN1CCCCC1)CN1CCCCC1	8%

Part of the list above, as comma-separated lines:
canonical_smiles,AmpC nodet inh
Cc1cc2oc(=O)cc(C)c2c(=O)o1,-14%
CN(C)CCOc1nc(-c2ccccc2)nc2c1oc1ccccc12,61%
FC(F)C(F)(F)C1=CC(c2cccs2)=NCCN1,-5%
CC(=O)N1CCc2cc(S(=O)(=O)NC(C(=O)NC3CCCc4ccccc43)C(C)C)ccc21 (stereo unspecified),23%
N[C@@H](Cc1cc(O)c(O)cc1O)C(=O)O,5µM*
O=C1CCC(=O)N1c1ccc(CSc2nc3ccccc3[nH]2)cc1,8%
O=C(CC1CCCCC1)N1CCN(c2ccccn2)CC1,17%
O=C(CSc1ccccn1)N1CCN(c2ccccc2)CC1,8%
O=C(Cn1cnc2ccccc21)OCC(=O)N1CCc2ccccc2C1,13%
CCOC(=O)CSc1nnc(-c2ccccc2NC(=O)c2ccccc2)o1,5%
COc1ccccc1C(=O)NCCC(=O)N1CC(=O)Nc2ccccc21,2%
CC(C)(C)c1ccc(S(=O)(=O)N2CCCC2C(=O)NC2=NCCS2)cc1 (stereo unspecified),29%
CCCC(=O)CN1C(=O)C2(OCCO2)c2ccccc21,-8%
O=C(Nc1ccc(Br)c2cccnc12)c1ccc(Cn2cc(Cl)cn2)o1,34%
O=C(CSc1nnc(C2CC2)n1Cc1ccccc1)c1cc2ccccc2o1,30%
O=C(COc1c(F)c(F)c(C(F)(F)F)c(F)c1F)Nc1ccc(N2CCOCC2)c(Cl)c1,43%
Cc1cccc(CCN(Cc2cc3cccc(C)c3[nH]c2=O)C(=O)N2CCOCC2)c1,127%
Cn1c(=O)c2c(ncn2CC(N)=O)n(C)c1=O,-10%

(listing goes on)
SMILES	AmpC nodet inh
NC(=Nc1ccccc1)Nc1ccccc1	?
Cc1ccc(-c2nnn(CC(=O)N3CCCCC3)n2)c(-n2cnnn2)c1	3%
O=C(c1cnn2cccnc12)N1CCN(Cc2ccc3c(c2)OCO3)CC1	11%
Cc1noc(C)c1COC(=O)c1cc(F)c(F)cc1Cl	14%
Cc1ccc2cc3cc(C(=O)N4CCCCCC4)oc3nc2c1	66%
CC(=O)c1c(N=CN(C)C)nc(C)nc1-c1ccccc1	-5%
O=C(O)CCCNc1cc(N2CCC3(CC2)OCCO3)c2noc3c2c1C(=O)c1ccccc1-3	117%
Cc1ccc(C)c(N2CCN(C(=O)c3cc(S(=O)(=O)N4CCOCC4)ccc3F)CC2)c1	147%
Cc1sc2nc3n(c(=O)c2c1C)NC(=O)CC3	2%
Cc1ccc2cc(C(c3nnnn3C(C)(C)C)N3CCCCCC3)c(=O)[nH]c2c1 (stereo unspecified)	32%
CC(C)OCCCNC(=O)CCc1nc(-c2ccccc2)no1	22%
C=CCN1C(=O)C2C(C(=O)NC3CCCCC3)C3C=CC2(O3)C1C(=O)NC1CCCC1 (stereo unspecified)	-5%
CN(Cc1ccco1)c1ncncc1-c1cccnc1	16%
Cc1cc(C)n(-c2cccc(Cl)c2)c(=O)c1C#N	1%
CN(C)c1ccc(C2N(c3ccc(F)cc3)C(=O)C3CCCN32)cc1 (stereo unspecified)	-6%
CC(=O)Nc1nc(-c2ccccc2)nc(-c2ccccc2OC(C)=O)n1	115%
COC(=O)c1[nH]c2ccccc2c1NC(=O)CNC1CCCCC1	25%
Cc1nc(CNS(=O)(=O)c2ccc3c(c2)CCCC3)cs1	9%
O=C(Nc1c[nH]c(=O)[nH]c1=O)Oc1ccccc1	0%[5.75 µM]
c1ccc(-c2noc(-c3cccnc3)n2)nc1	-7%
O=S(=O)(c1cccs1)n1nnc2ccccc21	-13%
CC(C)(C)OC(=O)N1CCC[C@H]1C(=O)NCC1CCC(C(=O)O)CC1 (stereo partly specified)	-14%
CCOc1cc2[nH]c(=S)n(CCCC(=O)N3CCC4(CC3)OCCO4)c(=O)c2cc1OCC	85%
CCC(=O)N1CCN=C1SCc1ccccc1Cl	13%
Cn1cnc([N+](=O)[O-])c1Sc1nc(N)nc2c1ncn2[C@H]1C[C@H](O)[C@@H](CO)O1	2%[5.75 µM]

Going on with the list.
SMILES	AmpC nodet inh
COc1ccc(C2=NOC(C(=O)Nc3ccc(C(C)=O)cc3)C2)cc1OC (stereo unspecified)	50%
Fc1ccc(CN2CCSCC2)cc1Br	12%
c1ccc(OCCn2cnc3ccccc32)cc1	20%
COc1cccc(C2C(C(=O)c3cccs3)=C(O)C(=O)N2CCN(C)C)c1OC (stereo unspecified)	-5%
Nc1nnc(COc2ccc(Br)cc2Br)s1	-23%
COc1cccc(-n2nnnc2SCC(=O)NCc2ccco2)c1	2%
COc1cccc(N2C(=O)C3CCCN3C2c2ccc(F)cc2)c1 (stereo unspecified)	26%
COC(=O)c1cc(Oc2ccc(C(=O)OC)cc2N)cc(C(=O)OC)c1	77%
CCCCNc1cc(NC(C)=O)cc2cc(OC)c(OC)cc12	31%
CCc1nc(C)cn1S(=O)(=O)c1cc(Br)ccc1OC	69%
CCOC(=O)C1CCCN(c2ncnc3c2cnn3-c2ccc(Cl)cc2)C1 (stereo unspecified)	81%
COc1ccc(CNC(=O)C2CC=CCC2C(=O)O)cc1OC (stereo unspecified)	-1%
CC(=O)[C@H](C(=N)C#N)C(=O)Nc1ccccc1	-6%[5.75 µM]
CCOC(=O)CNC(=O)CSc1nnnn1-c1cc(C)ccc1C	7%
c1ccc(-c2csc3ncn4cnnc4c23)cc1	1%
CCOC(=O)N1CCC(NC(=O)c2cccnc2SC)CC1	-16%
COc1ccc2nc(SCC(=O)NC(C)C)[nH]c2c1	0%
c1c[nH]c(CN2CCOCC2)n1	3%[5.75 µM]
O=c1[nH]c2c(c(=O)n1C1CCCCC1)CCC2	-1%
COC(=O)C1=C(C)NC(C)=C(C(=O)OCCSc2ccccc2)[C@@H]1C	59%
CCCNC(=O)c1c(N)n(CC2CCCO2)c2nc3ccccc3nc12 (stereo unspecified)	118%
COc1cc(NS(=O)(=O)c2ccc(F)cc2)c(OC)cc1NC(=O)C1CC1	1%
COc1ccc(S(=O)(=O)N(CCc2ccccc2)CC(=O)N2CCOCC2)cc1	149%
CC(NC(=O)Cc1ccccc1)c1nc2ccccc2[nH]1 (stereo unspecified)	-2%
O=CNc1ncn[nH]1	-2%[5.75 µM]
O=P(O)(CP(=O)(c1ccccc1)c1ccccc1)c1ccccc1	10%
COC(=O)c1cc(S(=O)(=O)n2nc(C)cc2C)c(Cl)cc1Cl	-2%
CCN(CC)c1ccc(NC(=O)C2CCCN(S(=O)(=O)c3cccnc3)C2)c(C)c1 (stereo unspecified)	4µM*[single pt active]
Clc1ccc2c(c1)CNc1c(ncnc1N1CCOCC1)O2	16%
CCOc1ccc(OCc2ccc(C(=O)OCc3ccccn3)o2)cc1	62%
